Vif TR-FRET – HIV-1 Vif–A3G interaction blockers – biochemical, TR-FRET, GST-Vif 1-94, biotin-A3G peptide, dose response retest, primary screen (AID 1117319) | TR-FRET GST-Vif / biotin-A3G peptide binding; higher % means a stronger effect; test concentration not given here; strong numbers were not always called active | inhibition, %; hits with a dose series show IC50 in µM | actives 0.57% (n = 260,000);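 active = above the screen mean plus three standard deviations and confirmed in dose response; inconclusive = results disagree or hit not tested in dose response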;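 note: Vif residues 1-94 fused to GST binding biotinylated APOBEC3G peptide 110-148; 0% = full assay without inhibitor and 100% = GST in place of GST-Vif; retest series ran down from 100 µM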
HNF4A DNA FP – change in binding of human HNF4 alpha to DNA. HNF4a-FITC DNA binding, fluorescence polarization, 1 h. activity change, % at 10 µM. actives 0.3% (n = 360,000). AID 1224865; in the data active = activity change above about 30%, passing the limit was not always enough;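 note: controls were the assay level and a saturating level of protein; the project sought stronger binding though the title names inhibitors; some compounds called inactive have numbers as strong as hits; positive values seem to mean higher polarization but the record does not say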
Target sequence (P41235 whole entry, looked up): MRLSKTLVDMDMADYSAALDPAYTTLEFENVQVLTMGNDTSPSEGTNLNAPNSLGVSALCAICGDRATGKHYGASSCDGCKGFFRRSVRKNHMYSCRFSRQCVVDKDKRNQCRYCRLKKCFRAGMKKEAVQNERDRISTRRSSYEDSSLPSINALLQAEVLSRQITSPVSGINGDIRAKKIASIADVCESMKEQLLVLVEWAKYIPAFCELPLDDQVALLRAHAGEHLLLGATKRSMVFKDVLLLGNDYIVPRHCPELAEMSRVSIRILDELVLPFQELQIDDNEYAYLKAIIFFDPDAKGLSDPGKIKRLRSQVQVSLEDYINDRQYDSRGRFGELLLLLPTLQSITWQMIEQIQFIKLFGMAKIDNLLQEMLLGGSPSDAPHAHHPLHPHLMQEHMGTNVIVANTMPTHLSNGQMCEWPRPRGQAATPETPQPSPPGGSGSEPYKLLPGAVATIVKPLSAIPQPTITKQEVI
rRNA inh HTS – inhibitors of bacterial rRNA selective over humanized ribosomes; E. coli WT GFP vs humanized-ribosome RFP mutants, fluorescence, 24 h; active compounds read low; DMSO median 0, no signal -100; GFP signal change (wild-type ribosome), % (concentration not given with the values); actives 1.6% (n = 350,000); AID 720706;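 active = significant combined selectivity score with lowered wild-type GFP, culture density cut under 30%, mutant RFP and density less affected; inactive = any of these conditions unmet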; note: one replicate is shown; some compounds called inactive have numbers as strong as hits
ALR H2O2 inh – human ALR oxidase inhibition via reduced H2O2; P55789; purified ALR, DTT oxidation, H2O2 HRP-luminol luminescence; inhibition, % (test concentration not listed); actives 3.8% (n = 290,000); AID 485317;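 active = mean and each replicate at 75% or more; inconclusive = only one of the two met; inactive = neither met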;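 note: stock transfer was 7.5 nL into about 7.5 µL; 0% = neutral wells and 100% = wells with inactivated enzyme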
Target sequence (P55789 whole entry, looked up): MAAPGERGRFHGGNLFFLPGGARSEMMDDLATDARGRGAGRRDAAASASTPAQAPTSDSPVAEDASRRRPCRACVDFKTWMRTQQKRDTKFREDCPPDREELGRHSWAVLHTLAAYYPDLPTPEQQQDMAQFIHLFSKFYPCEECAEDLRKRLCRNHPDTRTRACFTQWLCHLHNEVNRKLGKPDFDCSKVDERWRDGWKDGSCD
FGF22 binding – binders of recombinant human FGF22 by thermal shift | AID 651658 | Q9HCT0 | calls only at 9.99 µM | SYPRO orange fluorescence; percent of sucrose octasulfate shift, DMSO zero | actives 1.5% (n = 340,000);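 active = melting point raised past a set limit in the mean and every replicate; inconclusive = no clear call; three in four hits are not shown here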
Target sequence (Q9HCT0 whole entry, looked up): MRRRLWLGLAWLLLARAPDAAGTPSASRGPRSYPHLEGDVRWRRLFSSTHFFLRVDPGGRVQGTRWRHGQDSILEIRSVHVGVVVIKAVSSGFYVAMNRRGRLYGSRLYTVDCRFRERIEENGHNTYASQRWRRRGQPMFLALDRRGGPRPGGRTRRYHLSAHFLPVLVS
MLL AF4-AF9 inh – inhibitors of human MLL-AF4/AF9 interaction | AID 651704 | inhibition, % at 10 µM | actives 0.47% (n = 350,000) | AlphaScreen, biotin-AF4 peptide binding to FLAG-AF9 | P42568;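 active = every replicate reaching a set inhibition limit, whatever the replicate mean, cut at about 25% in these data; inconclusive = mean inhibition reaches that limit but some replicates miss it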;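 note: 0% = plate neutral control median and 100% = total signal loss; the record names both 10 and 1 µM as test concentration; the first replicate is given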
E coli growth – E. coli growth inhibition | Escherichia coli growth, OD600, 23 h; active compounds read low | OD600 absorbance (no concentration beside the values) | actives 0.21% (n = 330,000) | AID 1053175;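 active = OD600 absorbance below the run mean of sample wells minus 3.6 SD, in any replicate, cut at about 0.56 in these data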;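 note: stock transfer was 300 nL into about 60 µL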
rRNA inh HTS OD600 – recorded beside rRNA inh HTS, whose call it bears; OD600 change, %; measured here: OD600 growth;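 optical density of the mix in the first replicate; 0 = DMSO median and -100 = no signal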
rRNA inh HTS RFP – second read-out of rRNA inh HTS, no call of its own (marks repeat the call); RFP signal change, %; measured here: RFP humanized mutant strains;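 first replicate; 0 = DMSO median and -100 = no signal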
Numbers without * were called inactive; i = inactive; ? = inconclusive; · = no result given; + = active, no number. The list is partial; the hit share may differ from the screen's.

SMILES	Vif TR-FRET	HNF4A DNA FP	rRNA inh HTS	rRNA inh HTS OD600	rRNA inh HTS RFP	ALR H2O2 inh	FGF22 binding	MLL AF4-AF9 inh	E coli growth
Cc1ccccc1NC(=O)CNC(=O)Cc1cccc2ccccc12	-7%	7.6	-21	-21	0.6	0	i	-27	0.67
O=C(CCl)N=c1sccn1Cc1ccccc1Cl	4%	2.5	-4	-7	3.5	·	i	0.9	0.7
CCCCn1nnnc1C(c1ccccc1)N1CCN(c2ncccn2)CC1 (centres undefined)	·	1.9	2	-15	-3.0	·	i	-1.2	·
CCOC(=O)c1cc2cc(C)ccc2[nH]1	-5%	1.1	·	·	·	-2	·	·	0.74
O=C(NC(=S)Nc1sc2c(c1C(=O)O)CCCC2)c1ccccc1	-2%	-4.1	-27	-24	-1.0	61	i	-9.8	·
CCN1[C@@H]2c3ccc(-c4ccc(F)cc4)c(=O)n3C[C@@H]2[C@@H](CO)[C@@H]1C(=O)NCc1ccncn1	·	·	-2	5	3.1	·	i	0.1	·
COc1ccccc1NC(=O)N[C@@H]1CC[C@H](CCn2cc(-c3cccnc3)nn2)O[C@@H]1CO	·	·	3	8	2.8	·	i	-14	·
COc1ccc(CC(=O)Nc2nnc(SCC(=O)NCc3ccco3)s2)cc1OC	3%	1.5	21	9	1.7	11	i	-0.9	0.73
C[C@H](CO)N1C[C@H](C)[C@H](CN(C)Cc2ccc(C(=O)O)cc2)OCCCC[C@H](C)Oc2ccc(NS(=O)(=O)c3ccc(Cl)cc3)cc2C1=O	·	·	0	4	0.0	·	i	-1.3	·
CCCCOC(=O)C1=C(C)Nc2ncnn2C1c1cccc(OC)c1 (centres undefined)	-2%	-1.6	·	·	·	0	·	·	0.68
COC(=O)C(NC(=O)CNS(=O)(=O)c1ccc(Br)cc1)c1ccccc1 (centres undefined)	8%	-4.0	-3	-5	-0.2	5	i	-5.6	0.67
COCC(=O)Nc1ccc2c(c1)OC[C@@H](C)N(Cc1cc(F)ccc1F)C[C@@H](C)[C@@H](OC)CN(C)C2=O	·	·	-2	-1	-0.4	·	i	0.2	·
CC1CC=C2C(C#N)=C(N)C(C#N)(C#N)C(c3cccs3)C2C1 (centres undefined)	15%	-20	·	·	·	-25	·	·	0.68
CC1=C(C(=O)OCCOc2ccccc2)C(c2coc3ccccc3c2=O)C2=C(CCCC2=O)N1 (centres undefined)	-4%	1.7	-20	-29	-0.5	-4	i	-1.1	0.66
Cc1ccc(S(=O)(=O)N2C[C@@H](O)COC[C@H]3O[C@@H](CC(=O)NCCN4CCCCC4)CC[C@@H]32)cc1	·	·	6	13	-3.9	·	i	0.9	·

An excerpt of these results, as a markdown table.
| Compound | Vif TR-FRET | HNF4A DNA FP | rRNA inh HTS | rRNA inh HTS OD600 | rRNA inh HTS RFP | ALR H2O2 inh | FGF22 binding | MLL AF4-AF9 inh | E coli growth |
| --- | --- | --- | --- | --- | --- | --- | --- | --- | --- |
| CC1CC=C2C(C#N)=C(N)C(C#N)(C#N)C(c3cccs3)C2C1 (centres undefined) | 15% | -20 | · | · | · | -25 | · | · | 0.68 |
| CC1=C(C(=O)OCCOc2ccccc2)C(c2coc3ccccc3c2=O)C2=C(CCCC2=O)N1 (centres undefined) | -4% | 1.7 | -20 | -29 | -0.5 | -4 | i | -1.1 | 0.66 |

(listing goes on)
SMILES	Vif TR-FRET	HNF4A DNA FP	rRNA inh HTS	rRNA inh HTS OD600	rRNA inh HTS RFP	ALR H2O2 inh	FGF22 binding	MLL AF4-AF9 inh	E coli growth
C[C@H](CO)N1C[C@H](C)[C@H](CN(C)S(C)(=O)=O)Oc2c(NC(=O)c3ccc(-c4nccs4)cc3)cccc2C1=O	·	·	-7	-13	0.4	·	i	-0.8	·
O=C(Nc1ccc2[nH]ccc2c1)c1ccccc1	22%	-0.3	14	6	0.7	-14	i	·	0.59
Cc1cc(C)c2c3c(sc2n1)C(=O)N(Cc1ccccc1)CC(=O)N3	31%	0.7	·	·	·	·	·	·	0.69
CC1CCN(C(=O)CN2C(=O)C(C)(C)Oc3ccc(C(=O)NC(C)C)cc32)CC1	3%	-1.0	-1	7	-2.2	8	i	3.1	0.68
CCOC(=O)c1c(-c2ccc(OC)cc2)csc1NC(=O)CSc1ncnc2sccc12	-42%	5.4	6	-2	2.5	-11	i	-0.9	0.78
COc1ccc(N2CCN(CCCNC(=O)CN3CCN(Cc4ccccc4C)C3=O)CC2)cc1	7%	-2.0	·	·	·	62	·	·	0.68
O=C(O)C1CC(O)CN1S(=O)(=O)c1ccc2ccccc2c1 (centres undefined)	·	0.3	5	12	0.9	·	i	-1.7	0.69
CC(C)(C)NC(=O)C(c1ccncc1)N(C(=O)Cn1nnc(-c2ccc(F)cc2)n1)c1ccccc1 (centres undefined)	-9%	1.5	4	1	2.8	7	i	-0.4	0.72
C[C@@H]1CCCCO[C@H](CN(C)Cc2ccc(C(=O)O)cc2)[C@@H](C)CN([C@@H](C)CO)C(=O)c2cc(NC(=O)CCC(F)(F)F)ccc2O1	·	·	0	5	-0.2	·	i	-3.6	·
COC(=O)c1ccc2nc(C3CCCCC3)c(Cc3cccc(F)c3)n2c1	·	-2.8	6	6	-0.9	·	i	3.6	·
Cc1nnc(-c2cnn(-c3ccccc3)c2N)n1Cc1cccc(C(F)(F)F)c1	82%	4.0	·	·	·	21	·	·	0.71
CCOc1ccc(CCN2C(=O)C(=O)N([C@@H](CC(C)C)CN3CCC[C@H]3CN3C(=O)C(=O)NC[C@@H]3Cc3ccccc3)C[C@@H]2CC(C)C)cc1	·	0.3	20	10	4.4	·	i	0.7	·
CN1C(=O)c2cc(NS(=O)(=O)c3ccccc3Cl)ccc2OC[C@@H]2O[C@H](CC(=O)O)CC[C@H]21	·	·	5	3	0.1	·	i	-1.3	·
CC(C)(C)C1CCc2onc(C(=O)O)c2C1 (centres undefined)	7%	2.8	-4	-28	-1.4	-27	·	-1.4	0.68
Cc1[nH]nc(N=CC2=C(O)CC(c3ccco3)CC2=O)c1-c1ccc(Cl)cc1 (centres undefined)	9%	-0.3	-4	-8	2.2	0	i	0.6	0.67
O=C(O)CC(SCc1ccc(C(=O)O)o1)C(=O)O (centres undefined)	31%	-4.7	·	·	·	-1	·	·	0.69
CCCNS(=O)(=O)c1cc2c(cc1Br)CCN2C(=O)CC	1%	-3.1	15	12	3.5	·	i	-41	0.67
CCn1nnc2cc(C(=O)Nc3cccc(S(=O)(=O)N(C)C)c3)ccc21	5%	0.7	-9	-1	2.2	-4	i	-0.4	0.68
CN1CCN(C(=O)C[C@H]2CC[C@H]3[C@@H](COC[C@@H](O)CN3Cc3ccc(Oc4ccccc4)cc3)O2)CC1	·	·	-2	-18	8.5	·	i	2.8	·
Cn1c(N)c(C#N)c2c(c1=S)CSC(C)(C)C2	?	-8.6	·	·	·	0	·	·	0.68
CCOC(=O)C1CCCN(c2nc3ccccc3nc2C(C#N)C(=O)OCC)C1 (centres undefined)	-1%	4.2	·	·	·	1	·	·	0.74
COc1ccc(CNC(=O)C/C(C)=N/NC(=O)COc2ccc(Br)cc2)cc1	12%	-4.8	2	6	-0.3	-1	i	-1.9	·
COc1ccc(CNS(=O)(=O)c2ccc3c(c2)CCN3C(=O)C2CC2)cc1	31%	-3.9	·	·	·	0	·	·	0.68
Cc1cc(C)c2nc(NC(=O)c3ccc(OCC4CCCO4)cc3)sc2c1 (centres undefined)	-9%	2.0	1	-6	-4.0	1	i	0.0	·
O=C(C1CCCC1)N1CC2(C1)[C@H](c1ccccc1)[C@@H](CO)N2CC1CC1	·	·	2	9	-3.0	·	+	-0.9	·
C[C@H](CO)N1C[C@H](C)[C@H](CN(C)C(=O)C2CC2)Oc2ncc(C#Cc3ccccc3F)cc2C1=O	·	·	7	9	2.3	·	i	-2.9	·
CCN1C(=O)C2(C(C#N)=C(N)Oc3n[nH]c(C(C)C)c32)c2ccccc21 (centres undefined)	-1%	4.3	·	·	·	·	·	·	0.67
Cc1cccc(NC(=O)N2CCC(NC(=O)c3ccccc3C)CC2)c1	0%	-2.1	·	·	·	-4	·	·	0.72
COc1cc(/C=N/NC(=O)CC#N)ccc1Oc1nc(Cl)ncc1F	·	-3.1	19	9	2.7	·	i	2.1	·
O=C(NCc1ccccc1)c1ccc(CS(=O)Cc2cccc(Cl)c2)o1 (centres undefined)	-2%	-0.8	-13	-27	-0.8	·	i	-2.1	·
COc1ccc(S(=O)(=O)N(C)C[C@@H]2Oc3ccc(NS(=O)(=O)c4ccc(F)cc4)cc3CC(=O)N([C@H](C)CO)C[C@H]2C)cc1	·	·	-1	-1	-1.5	·	i	0.5	·
CCOC(=O)Nc1c(C(=O)OC)[nH]c2cc(OC)ccc12	0%	-0.8	·	·	·	6	·	·	0.7
CCOC(=O)Cn1nc(-c2ccc(C)cc2)ccc1=O	2%	-0.2	·	·	·	-6	·	·	0.72
O=C(CC(C(=O)N1CCc2ccccc21)n1ccnc1)NCc1cccnc1 (centres undefined)	15%	-2.5	·	·	·	·	·	·	0.65
CN(C)C(CNC(=O)CN1C(=O)NC2(CCCC2)C1=O)c1ccccc1 (centres undefined)	·	-3.1	9	7	0.2	·	i	-12	0.62
Cc1cc(C(C)(C)C)ccc1OCCCCN1CCCC1	-8%	0.0	·	·	·	-4	·	·	0.62
Cc1ccc(CNC(=O)CNC(=O)c2ccc(C(C)(C)C)cc2)n1C	·	5.6	17	8	3.1	·	i	2.4	0.68
O=C(N/N=C/c1ccncc1)c1cc2ccccc2o1	·	2.5	1	28	13	-9	+	0.2	·
COc1ccc(NC(=O)N(C)C[C@@H]2OCCCC[C@H](C)Oc3ccc(NS(=O)(=O)c4ccc(F)cc4)cc3C(=O)N([C@@H](C)CO)C[C@@H]2C)cc1	·	·	2	4	5.9	·	i	-1.2	·
O=C(NCC(c1cccs1)N1CCOCC1)C1CCN(S(=O)(=O)c2c(Cl)cccc2Cl)CC1 (centres undefined)	0%	-2.3	-6	-7	-1.3	-10	·	1.2	0.69
CCOC(=O)NC(Nc1sc2c(c1C(N)=O)CCCC2)(C(=O)OCC)C(F)(F)F (centres undefined)	16%	-0.6	·	·	·	-5	·	·	0.67
CN(Cc1ccon1)Cc1cn(Cc2ccccc2)nc1-c1ccc2c(c1)OCO2	-5%	-4.6	-1	-9	1.8	37	i	0.6	0.68
O=C(NCc1ccc(Cl)cc1)C(=O)NCC1OCCCN1S(=O)(=O)c1cccs1 (centres undefined)	-6%	5.5	-13	-16	-2.0	-5	i	0.2	0.72
COC(=O)c1ccc(Cl)c(NS(=O)(=O)c2ccc3c(c2)OCCO3)c1	-1%	-2.2	·	·	·	5	·	·	0.7
O=C(OCC(=O)N1CCN(S(=O)(=O)c2ccc(Cl)cc2)CC1)c1ccc([N+](=O)[O-])o1	-11%	1.7	7	11	0.2	-68	i	4.6	0.68
Cc1ccc(NC(=S)N(CCN(C)C)Cc2cccs2)c(C)c1	-7%	1.5	1	2	0.3	6	i	2.6	0.72

Complete entries from above. Values in the order: Vif TR-FRET, HNF4A DNA FP, rRNA inh HTS, rRNA inh HTS OD600, rRNA inh HTS RFP, ALR H2O2 inh, FGF22 binding, MLL AF4-AF9 inh, E coli growth
Profile of `Cc1ccc(NC(=S)N(CCN(C)C)Cc2cccs2)c(C)c1` = -7%, 1.5, 1, 2, 0.3, 6, i, 2.6, 0.72
Profile of `COC(=O)c1ccc(Cl)c(NS(=O)(=O)c2ccc3c(c2)OCCO3)c1` = -1%, -2.2, ·, ·, ·, 5, ·, ·, 0.7

Screening results deposited in PubChem BioAssay by several laboratories.
